D2 potentiator – human D2 receptor positive allosteric modulation; DiscoveRx D2 beta-arrestin cells, luminescence, 90 min; 100% = 57 uM dopamine signal; potentiation, % (no concentration beside the values); 360,000 compounds, 0.23% hits; active = potentiation of 50% or more; inconclusive = 30% to 50%; inactive = 30% or less;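 further: compound concentration not given in the record; tested on top of an EC20 dose of dopamine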
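PathHunter beta-arrestin assay in DiscoveRx D2 cells. Compounds were added with an EC20 of dopamine (50 nM final) for 90 min at 37 deg C. Luminescence was read 1 h after detection reagent, with 57 uM dopamine as the EC100 control.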
TRPML1 agonist – agonists of human TRPML1 channel; activation, % (no concentration beside the values); AID 624414; TRPML1-expressing cells, Ca2+ dye fluorescence, FDSS; host cell line not named in the record; reference of the full effect not given here; 410,000 compounds, 0.12% hits; in the data active = activation above about 50%; inconclusive = about 30% to 50%; inactive = below about 30%; further: 0% is about no effect; the text of the record puts the active cut at 80%
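Kinetic FDSS Ca2+ read in Tet-induced TRPML1-DL cells (ABD Ca8 dye plus quencher, 45-90 min RT loading): baseline, then compound, then 110 s agonist window; EC80 agonist 54-4 at 4uM final added afterwards for a 110 s antagonist window.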
TRPV1 potentiator – potentiators of human vanilloid receptor 1 (TRPV1) | TRPV1-expressing cells, Fluo-8 calcium influx, capsaicin EC20 potentiation; host cell line not named in the record; control for the full effect not named in the record | potentiation, % at 8.33 µM | 320,000 compounds, 0.02% hits | AID 540277; active means potentiation above 80%; inconclusive means 30% to 80%; inactive means below 30%; further: 0% is about no effect
Target sequence (Q8NER1 whole entry, looked up): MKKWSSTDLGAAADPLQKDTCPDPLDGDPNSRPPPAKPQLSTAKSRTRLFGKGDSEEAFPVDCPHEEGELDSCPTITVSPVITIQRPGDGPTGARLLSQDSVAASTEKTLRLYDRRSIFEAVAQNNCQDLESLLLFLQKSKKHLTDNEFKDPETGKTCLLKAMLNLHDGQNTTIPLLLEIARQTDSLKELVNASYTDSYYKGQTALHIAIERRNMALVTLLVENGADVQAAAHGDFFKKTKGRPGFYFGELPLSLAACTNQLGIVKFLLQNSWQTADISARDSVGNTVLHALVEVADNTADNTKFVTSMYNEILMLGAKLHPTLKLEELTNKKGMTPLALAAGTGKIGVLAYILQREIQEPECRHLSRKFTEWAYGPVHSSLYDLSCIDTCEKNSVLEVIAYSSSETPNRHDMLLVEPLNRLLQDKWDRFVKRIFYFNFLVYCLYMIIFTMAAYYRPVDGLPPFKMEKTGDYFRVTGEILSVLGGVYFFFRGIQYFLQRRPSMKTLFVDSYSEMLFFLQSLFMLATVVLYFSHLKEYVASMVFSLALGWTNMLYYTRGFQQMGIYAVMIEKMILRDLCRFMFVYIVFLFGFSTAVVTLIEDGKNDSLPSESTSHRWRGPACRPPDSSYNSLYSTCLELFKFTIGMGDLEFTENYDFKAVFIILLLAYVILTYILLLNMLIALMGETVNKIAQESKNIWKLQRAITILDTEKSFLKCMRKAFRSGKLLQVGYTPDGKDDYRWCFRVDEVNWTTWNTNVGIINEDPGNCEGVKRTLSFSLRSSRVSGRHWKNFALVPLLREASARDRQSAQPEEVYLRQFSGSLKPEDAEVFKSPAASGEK
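Cells expressing TRPV1 were dye-loaded with Fluo-8 and read kinetically: 10 s baseline, 3 min after compound (agonist portion), then 2 min after EC20 capsaicin (allosteric enhancer portion). Calcium-bound dye fluorescence at 480/520 nm.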
TRPML1 inh – blocks the human TRPML1 channel; activity change, negative = inhibition, % (concentration not given with the values); TRPML1-inducible cells, Ca2+ dye fluorescence, FDSS; active compounds read low; inhibition of EC80 agonist-evoked calcium signal; Q9GZU1; AID 624415; 390,000 compounds, 0.02% hits; in the data active means activity change below about -50%; inconclusive means about -30% to -50%; inactive means above about -30%;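 further: stimulus is agonist 54-4 at its EC80 concentration; on the % scale 0 is the no-effect control and ±100 the full control effect; the text of the record puts the active cut at -80%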
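Tet-induced TRPML1-DL cells loaded with Ca8 no-wash calcium dye were read kinetically on FDSS. Compound addition was followed by EC80 agonist 54-4 (4 uM final); inhibition was read over 110 s.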
Six1-Eya2 inh – blocks human Six1 binding to Eya2. AID 651725. AlphaScreen GST-Six1/His-Eya2 binding, biochemical; active compounds read low; control for the full effect not named in the record. 360,000 compounds, 0.56% hits. activity change, % (concentration not given with the values); in the data active = activity change below about -65%; inconclusive = about -30% to -65%; inactive = above about -30%; further: on the % scale 0 is the no-effect control and ±100 the full control effect
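Six1/Eya2 binding was read as AlphaScreen signal after compounds were pinned into GST-Six1 plus His-tagged Eya2 (5X stock 250/500 nM) in pH 8.0 Tris/NaCl/TCEP buffer, beads added, then incubated 1 h, 37 C, dark.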
CtBP-E1A blk – inhibitors of CtBP/E1A interaction | AlphaScreen GST-E1A/His-CtBP binding, 1536-well; active compounds read low; control for the full effect not named in the record | 340,000 compounds, 0.49% hits | activity change, % (concentration not given with the values); in the data active means activity change below about -65%; inconclusive means about -30% to -65%; inactive means above about -30%; further: on the % scale 0 is the no-effect control and ±100 the full control effect
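GST-E1A and His-tagged CtBP (125 nM each as 5X stock) were preincubated with pin-transferred compound for 2 h at 37 °C in the dark, then glutathione donor and nickel acceptor beads were added for 1 h before AlphaScreen reading.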
Numbers without * were called inactive; ? = inconclusive; . = not tested or not shown; & = joins results of further samples.

SMILES	D2 potentiator	TRPML1 agonist	TRPV1 potentiator	TRPML1 inh	Six1-Eya2 inh	CtBP-E1A blk
COc1ccc(C(=O)N(C)CCCC2CCCC2)cc1OC1CCN(C(C)=O)CC1	-4	0.0	2	6	-2	3
Cc1ccc(CCN2CC(C(=O)NCCCN3CCN(C)CC3)CC2=O)cc1 (stereo not given)	4	-0.1	.	4	3	-2
CC(=O)CC(=O)NC(=NC1CCCCC1)Nc1nc(C)cc(C)n1	-13	-0.1	3	7	-8	-2
CCN(CC)S(=O)(=O)c1ccc2oc(C(=O)NCCN3CCOCC3)c(C)c2c1	-1	-0.9	-23	-20	-1	5
O=C1CC(N2CCN(c3cccc(C(F)(F)F)c3)CC2)C(=O)N1c1ccc(F)cc1 (stereo not given)	-7	-0.1	.	-3	0	1
COc1ccc(N(CC(=O)Nc2ccccc2C(F)(F)F)C2=NC3CS(=O)(=O)CC3S2)cc1 (stereo not given)	-3	0.2	-32	-10	-2	3
CCCCOC(=O)CSc1nc(N)c(C#N)c(-c2ccc(OC)cc2)c1C#N	-17	1.3	-1	7	2	6
Cc1ccc(-c2csc(N3C(=N)SCC3=O)n2)cc1	1	-0.6	-6	16	0	0
CC(=O)Nc1ccc(NC(=O)CSCc2ccccc2Cl)cc1	-8	1.8	.	13	23	22
CC(C(=O)NC(C)(C)C)N(Cc1cccs1)C(=O)CCN1CCc2ccccc21 (stereo not given)	-2	-0.1	-3	-10	-9	-13

Random excerpt: 2 entries already listed.
SMILES	D2 potentiator	TRPML1 agonist	TRPV1 potentiator	TRPML1 inh	Six1-Eya2 inh	CtBP-E1A blk
COc1ccc(N(CC(=O)Nc2ccccc2C(F)(F)F)C2=NC3CS(=O)(=O)CC3S2)cc1 (stereo not given)	-3	0.2	-32	-10	-2	3
CC(=O)Nc1ccc(NC(=O)CSCc2ccccc2Cl)cc1	-8	1.8	.	13	23	22

(continued)
SMILES	D2 potentiator	TRPML1 agonist	TRPV1 potentiator	TRPML1 inh	Six1-Eya2 inh	CtBP-E1A blk
Cc1ccc(N(Cc2cc3cccc(C)c3[nH]c2=O)S(=O)(=O)c2ccccc2)c(C)c1	2	1.5	4	35	-1	-3
CC(C)(C)c1ccc(CS(=O)(=O)CC(O)CN2CCCC2=O)cc1 (stereo not given)	-5	-0.4	16	-9	10	-15
COc1cccc(OC)c1C(=O)Nc1ccc(CN2CCOCC2)cc1	-10	-0.4	7	-7	0	0
CCc1nnc(NC(=O)c2ccc(S(=O)(=O)N3CCCC(C)C3)cc2)s1 (stereo not given)	-3	-0.3	-8	11	-1	6
COc1ccc(C(CNC(=O)c2oc3cc(C)c(C)cc3c2C)N2CCCCC2)cc1 (stereo not given)	-30	0.1&-0.4	13	-8&-25	0	-3
COc1cc(/C=C/C(=O)O)cc(S(=O)(=O)Nc2ccccc2SC)c1OC	-13	-0.2	1	-7	4	-7
COc1ccc(S(=O)(=O)N2CCCC2)cc1C(=O)N1CCOCC1	-2	-0.3	2	4	3	7
CC1CCCC(C)N1C(=O)CSc1nnc(-c2ccco2)n1C (stereo not given)	-4	-0.1	5	-5	5	-14
Nn1c(-c2ccccc2Cl)nnc1-c1ccccc1Cl	20	-0.1	-10	-19	-6	1
COc1ccc(S(=O)(=O)Nc2ccccc2SC)cc1C	1	2.5	4	-7	7	16

The closing five entries of the section above lead into the next.
SMILES	D2 potentiator	TRPML1 agonist	TRPV1 potentiator	TRPML1 inh	Six1-Eya2 inh	CtBP-E1A blk
COc1cc(/C=C/C(=O)O)cc(S(=O)(=O)Nc2ccccc2SC)c1OC	-13	-0.2	1	-7	4	-7
COc1ccc(S(=O)(=O)N2CCCC2)cc1C(=O)N1CCOCC1	-2	-0.3	2	4	3	7
CC1CCCC(C)N1C(=O)CSc1nnc(-c2ccco2)n1C (stereo not given)	-4	-0.1	5	-5	5	-14
Nn1c(-c2ccccc2Cl)nnc1-c1ccccc1Cl	20	-0.1	-10	-19	-6	1
COc1ccc(S(=O)(=O)Nc2ccccc2SC)cc1C	1	2.5	4	-7	7	16
Cc1c(Cl)cccc1NC(=S)N(CCCN1CCOCC1)Cc1ccco1	-6	-0.1	-12	-8	-3	-1
O=C(c1ccco1)[C@@H]1[C@@H]2C(=O)N(c3ccc(Br)cc3)C(=O)[C@@H]2C2c3ccccc3C=CN21 (stereo not given in full)	-22	1.6	-3	-2	0	6
O=C(CN(C(=O)Cn1nnc(-c2ccc(F)cc2)n1)c1ccc(F)c(Cl)c1)NCC1CCCO1 (stereo not given)	-4	-0.2	6	3	-11	.
CCSC1=NN2CCS(=O)(=O)N=C2S1	-22	0.3	9	0	4	11
Cc1ccsc1C1CC(=O)Nc2ccccc2S1 (stereo not given)	-7	-1.0	-5	38	-5	-1
Cc1ccc(NC(=O)N2CCCN(C(=O)OC(C)(C)C)CC2)cc1Cl	-10	1.1	-12	-2	10	1
O=C1Nc2ccccc2N=C(c2ccc3c(c2)OCO3)C1N(C(=O)c1ccnc2ccccc12)c1ccccc1 (stereo not given)	-10	-0.1	.	41	-19	?
O=C(COc1ccc(Cl)cc1)NCc1nnc(SCC(=O)Nc2ccc3c(c2)OCCO3)o1	-3	4.3	5	-3	0	2
Cc1c(S(=O)(=O)Nc2ccc(Br)cc2)c(=O)n(C)c(=O)n1C	0	-0.2	-11	48	2	7
COc1cccc(C2(O)CC(C(F)(F)F)=NN2C(=O)c2ccccn2)c1 (stereo not given)	-18	-0.5	5	-3	-7	-19
O=c1c2c(nc3cc(-c4ccc(F)cc4)[nH]n13)CCCC2	-11	-0.1	-3	-8	-1	-14
N#C/C(=C\c1ccccc1)C(=O)N(c1ccccn1)C1CCCCC1	-2	0.5	-24	1	-8	1
COc1ccccc1Cn1c(=O)[nH]c2cccnc21	-12	5.7	5	-1	7	28
COc1ccc(Br)cc1S(=O)(=O)n1c([N+](=O)[O-])cnc1C	-9	.	-13	.	5	.
O=C(CNC(=O)c1cc(=O)[nH]c2ccccc12)Nc1ccc(F)c(F)c1	-5	-0.3	5	-10	3	-6
CN1CCN(C(=O)CCNC(=O)Cn2ccc3ccccc3c2=O)CC1	-3	-0.1	7	-14	-7	-18
CCOC(=O)C1CCN(C(=O)c2ccc(Oc3cc(Cl)cc(Cl)c3)o2)CC1	-1	0.7	-14	17	-9	4
C/C(=N\NC(=O)c1cccc(S(=O)(=O)N2CCOCC2)c1)c1ccco1	-1	0.4	-11	-10	-7	1
Cn1c(CCNC(=O)c2ccco2)nc2cc(NC(=O)C3CCCCC3)ccc21	0	-0.1	-15	-10	2	4
CCOc1ccc(CCN2C(=S)N([C@@H](Cc3ccc(O)cc3)CN3CCCC3CN3C(=S)NC[C@@H]3Cc3ccc(O)cc3)C[C@@H]2CC(C)C)cc1 (stereo not given in full)	-15	-0.6	.	-10	-11	-2
O=C(O)c1cccnc1SCc1ccc([N+](=O)[O-])cc1	-9	1.6	1	-8	1	.
CNC(=O)Cc1csc2ccc(Cl)cc12	1	-0.1	8	24	-4	2
CC1(C)CC(=O)C=C(Nc2ccccc2N)C1	-6	0.8	?	-3	-5	2
O=C(CN1CCN(CC(=O)Nc2ccccc2Cc2ccccc2)CC1)Nc1ccccc1Cl	0	-0.1	6	-12	4	5
CC(C)(C)c1ccc(C(=O)Oc2ccccc2CCC(=O)O)cc1	-4	1.2	-10	1	-3	1
CCN(CC)c1ccc(NC(=O)c2cccnc2)c(C)c1	-1	0.0	-17	-13	0	-10
C=CCNC(=S)Nc1ccc(OC(F)F)c(Cl)c1	-1	-0.2	-2	2	7	-16
COc1ccc(CC(=O)O/N=C(\N)c2ccc(OC)cc2)cc1	-6	0.4	-2	-8	31	30
CCOC(=O)C1(C)NC(c2cccs2)C2C(=O)N(c3ccc(OC)cc3)C(=O)C21 (stereo not given)	-1	-0.4	15	32	-2	-6
CCOC(=O)c1c(C)[nH]c(C(=O)N/N=C/c2cccc(OC)c2)c1C	-5	2.5	12	-16	-18	-22

2 of the compounds above, as labelled records:
CC1(C)CC(=O)C=C(Nc2ccccc2N)C1
  D2 potentiator = -6; TRPML1 agonist = 0.8; TRPV1 potentiator = ?; TRPML1 inh = -3; Six1-Eya2 inh = -5; CtBP-E1A blk = 2

O=C(CN1CCN(CC(=O)Nc2ccccc2Cc2ccccc2)CC1)Nc1ccccc1Cl
  D2 potentiator = 0; TRPML1 agonist = -0.1; TRPV1 potentiator = 6; TRPML1 inh = -12; Six1-Eya2 inh = 4; CtBP-E1A blk = 5

Following part:
SMILES	D2 potentiator	TRPML1 agonist	TRPV1 potentiator	TRPML1 inh	Six1-Eya2 inh	CtBP-E1A blk
O=C(NC1CCCCC1)c1cc(-c2cccc(Cl)c2)on1	0	-0.2	-8	-10	4	-1
CCOP(=O)(/C(C#N)=C(/O)c1ccccc1)c1ccccc1 (stereo not given)	-6	1.1	13	22	4	0
CC1(C)CC(=O)C(C=NCC2CCCO2)=C(O)C1 (stereo not given)	1	-0.9	-14	5	0	10
CN(CCc1cnn(C)c1)C(=O)C1CCC(=O)N(CC2CCCCC2)C1 (stereo not given)	-4	0.2	0	-6	-2	3
CNC[C@H]1Oc2c(NS(=O)(=O)c3cccs3)cccc2C(=O)N([C@H](C)CO)C[C@@H]1C	-6	-0.4	.	10	-7	7
Nc1ccccc1C(=O)NCc1ccco1	-4	-0.1	-2	-4	0	-2
Cc1c(NC(=O)CN2C(=O)C3C4C=CC(C4)C3C2=O)c(=O)n(-c2ccccc2)n1C (stereo not given)	7	-0.4	4	-7	1	-1
Cc1ccc(C2C(C(=O)c3cccs3)=C(O)C(=O)N2c2nnc(C)s2)cc1 (stereo not given)	1	-0.1	-17	6	14	-11
COc1ccccc1CNC(=O)C(=O)NCCC1CCCCN1S(=O)(=O)c1ccccc1 (stereo not given)	4	0.5	-2	7	6	3
Cc1ccc(C(=O)Nc2ccc3c(c2)C(=O)NC3=O)cc1	-7	-0.9	-28	26	8	-1

Three of the entries above in order of the D2 potentiator value, smallest number first:
| Molecule | D2 potentiator | TRPML1 inh | Six1-Eya2 inh | CtBP-E1A blk |
| --- | --- | --- | --- | --- |
| O=C(CNC(=O)c1cc(=O)[nH]c2ccccc12)Nc1ccc(F)c(F)c1 | -5 | -10 | 3 | -6 |
| CC1CCCC(C)N1C(=O)CSc1nnc(-c2ccco2)n1C (stereo not given) | -4 | -5 | 5 | -14 |
| Nn1c(-c2ccccc2Cl)nnc1-c1ccccc1Cl | 20 | -19 | -6 | 1 |

(more compounds)
SMILES	D2 potentiator	TRPML1 agonist	TRPV1 potentiator	TRPML1 inh	Six1-Eya2 inh	CtBP-E1A blk
COC(=O)c1ccc(NC(=S)Nc2cccc(C)n2)cc1	-2	0.4	-7	4	1	4
CC(C)C[C@H]1CNC(=S)N1CC1CCN(CCCC2CCCCC2)CC1	-19	-0.4	.	2	-3	-10
Cc1ccc(N2C(=O)N(CC(=O)Nc3ccc(C)cc3[N+](=O)[O-])C(=O)C2C)cc1 (stereo not given)	7	1.1	-17	16	-6	-18
O=C(NCc1ccccc1Cl)C1CCN(S(=O)(=O)c2cccs2)CC1	-9	-0.1	-44	-18	5	6
COc1ccc(OCC(Cn2cnc3ccccc32)OC(C)=O)cc1 (stereo not given)	-3	0.3	17	-9	-1	4
CCOc1ccc(NC(=O)c2cnccn2)cc1	-7	-0.5	-2	-2	4	-8
COC(=O)c1ccc(COc2ccc(CNCc3ccc(Cl)cc3)cc2)cc1	-3	2.0	-16	12	1	13
